Vaccinia Venus = vaccinia inhibition (Venus reporter); actives 0.46% (n = 330,000); Vaccinia virus Venus reporter expression, fluorescence; Potency, µM (top dose mostly 36.5 µM), for inactives: at the highest dose activity change, negative = inhibition, actives largely listed as inhibitors; AID 720580; active means well fitted inhibition curve with a large enough effect; inconclusive means small, poorly fitted or top-dose-only effect; inactive means no such curve, though single readings can be large or run the other way; tested in A549 cells; also: nearly all actives have a fitted effect of over 30% in size; inactives centre near -10
VACV mCherry inh = vaccinia inhibition (mCherry reporter); Vaccinia virus mCherry reporter infection, fluorescence; about a quarter of the inactives have no number; Potency, µM (top dose mostly 36.5 µM), for the others: at the top dose activity change, negative = inhibition, most hits filed as inhibitors; actives 0.63% (n = 310,000); AID 720579; active = well fitted inhibition curve with a large enough effect; inconclusive = small, poorly fitted or top-dose-only effect; inactive = no such curve, though single readings can be large or run the other way; tested in A549 cells; also: nearly all actives have a fitted effect of over 35% in size; inactives centre near -10
* = called active by the depositor; i = inactive; ? = inconclusive; . = not tested or not shown; & = joins results of further samples; [ ] = another dose, or the depositor's remark. % is scaled to controls: 0 for no effect and ±100 for the full control effect; potency is read from the fitted curve at half-maximal effect.

SMILES	Vaccinia Venus	VACV mCherry inh
O=C(Nc1cccnc1Cl)c1cc(-c2ccco2)on1	-8.2%	-12.9%
COC(=O)CSc1nnc(-c2ccc(OC)c(OC)c2)o1	-22.1%	i
C/C(N)=C(\C#N)C(=O)NCCc1ccccn1	-27.2%	-15.1%
COc1ccc2c(c1)c1c(c(=O)n(-c3cccc(C)c3)c(=O)n1CC(=O)NCCC1=CCCCC1)n2C	-13.7%	?
Cc1onc(-c2ccccc2)c1C(=O)NNC(=S)NC(=O)c1ccc2c(c1)OCO2	-9.2%	-16.3%
CCN1CNC(=S)N(c2cccc(C)c2)C1	-10.3%	i
CCN(C(=O)CC(C)C)c1nnc(Cn2nnc3ccccc32)s1	-19.6%	?
O=C(COC(=O)C1CCN(c2ccc(C(F)(F)F)cn2)CC1)Nc1ccc(F)cc1[N+](=O)[O-]	-7.6%	?
CCOc1ccc(S(=O)(=O)N(C)CC(=O)NC2CC2)cc1	-13.7%	i
O=C1OC(/C(=C\Nc2ccc(F)cc2F)[N+](=O)[O-])c2ccccc21 (configuration not stated)	-6.8%	-6.8%
CC(C)(C)c1ccc(C(=O)NCC(=O)N2CCCCCC2)cc1	-17.5%	i
Cc1cccc(N=Nc2ccc(O)c3ncccc23)c1	?	14.1µM*
Fc1cccc(-c2nnn3c2nc(NCc2ccc4c(c2)OCO4)c2ccccc23)c1	1.9%	-2.7%
Cc1noc(C)c1S(=O)(=O)NCCN1CCN(c2ccccc2)CC1	-6.9%	-11.2%
COc1cc(C)c(CN2C[C@H](Sc3nc4ccccc4[nH]3)C[C@H]2C(=O)N(C)C)cc1C	-19.9%	i
O=c1[nH]c(CSc2nc(-c3ccccc3)cs2)nc2ccccc12	-9.7%	-10.3%
CN(C)CC(=O)Nc1ccc(S(N)(=O)=O)cc1	-17.9%	-22.3%
Cc1cccc(N2CCN(C(=O)c3ccc4c(c3)N(Cc3cccc(Cl)c3)C(=O)c3ccccc3S4=O)CC2C)c1 (configuration not stated)	-15.1%	-28.2%
COc1ccc(OC)c(Nc2nc(-c3sc(NC(=O)C(C)(C)C)nc3C)cs2)c1	?	?
COc1cc(NC(=S)NNC(=O)CC(C)C)c(OC)cc1Cl	-10.1%	-3.1%
CN1CCN(CC(C)(C)NS(=O)(=O)c2ccccc2)CC1	-2.3%	-10.5%
Cc1ccc2c(c1)C1CN(C)CCC1N2C(=O)COc1ccccc1F (configuration not stated)	5.5%	-3.3%
COc1cc(/C=C/c2cccc[n+]2C)ccc1OCC(=O)Nc1cccc(Cl)c1	-2.0%	-11.7%
N=c1ccn(O)cc1CCc1ccccc1	-4.2%	i
O=C(Nc1ccc(F)cc1)c1ncn(-c2ccccc2)n1	-14.4%	-3.1%
Cn1c(=S)oc2ccccc21	3.8%[7.34 µM]	i[7.34 µM]
O=C(NCCc1ccccc1)c1c[nH]c2c(F)cccc2c1=O	-13.4%	-14.2%
Cc1csc(CN(C)C(=O)CC2C(=O)NCCN2CC(C)(C)C)n1 (configuration not stated)	-0.9%	i
C[C@H](CO)N1C[C@H](C)[C@@H](CN(C)C(=O)CCCN(C)C)OCc2cn(nn2)CCCC1=O	-4.6%	i
Cc1cc(C)cc(CC(=O)N2CCC2(C)C(=O)NS(=O)(=O)c2cccc(F)c2)c1 (configuration not stated)	2.3%	33.1%[activator]
CCCCSCCCNC(=O)c1cn(CC)c2ccc(S(=O)(=O)N3CCOCC3)cc2c1=O	-7.9%	-8.7%
Cc1nn(CCC(=O)Nc2cccc(C#N)c2)c(C)c1S(=O)(=O)N1CCCCC1	-8.9%&-12.3%	-11.2%&-12.1%
Cc1cccc2cncc(OCc3nnc(SC(F)F)n3C)c12	-9.0%	-17.7%
Cc1cccc(COCC(CC(C)C)N2CCN(C(=O)c3ccc(C(F)(F)F)cc3)CCC2=O)c1 (configuration not stated)	-22.5%	i
C/C(Cc1ccccc1)=N\NC(=O)CNC(=O)c1ccccc1F	-11.8%	i
Cc1cc(Oc2ccc(=O)n(C)n2)nc(Oc2ccc(=O)[nH]n2)n1	-3.3%	.
COc1ccc(C)c2sc(N(CCCN(C)C)C(=O)CS(=O)(=O)c3ccc(F)cc3)nc12	-11.4%	-29.3%
COc1ccc(-c2nc3scc(CCNS(=O)(=O)c4cccc(C(C)=O)c4)n3n2)cc1	-16.5%	-17.5%
Cc1ccc(NCC(=O)Nc2cccc(S(=O)(=O)N(C)C)c2)cc1S(=O)(=O)N1CCCCCC1	?	?
COc1cc(C(=O)NNC(=S)NC(=O)c2ccc(Cl)cc2)cc(OC)c1OC	-20.6%	-19.3%

Compound profiles, as listed above.
COc1ccc(-c2nc3scc(CCNS(=O)(=O)c4cccc(C(C)=O)c4)n3n2)cc1 across the screens: Vaccinia Venus = -16.5%; VACV mCherry inh = -17.5%
Cc1cc(C)cc(CC(=O)N2CCC2(C)C(=O)NS(=O)(=O)c2cccc(F)c2)c1 (configuration not stated) across the screens: Vaccinia Venus = 2.3%; VACV mCherry inh = 33.1%[activator]
COc1cc(/C=C/c2cccc[n+]2C)ccc1OCC(=O)Nc1cccc(Cl)c1 across the screens: Vaccinia Venus = -2.0%; VACV mCherry inh = -11.7%

Going on with the list:
SMILES	Vaccinia Venus	VACV mCherry inh
CN(C(=O)c1cccc(NC(=O)Cc2cccc(NC(=O)C3CCN(C(=O)C4CCCC4)CC3)c2)c1)C1CC1	0.0%	-0.9%
Cn1cc(SCC(=O)N2CCOCC2)c2ccccc21	-6.4%	i
Cc1nnc(SCC(=O)N2CCOCC2)[nH]c1=O	11.0%	-9.6%
COc1cc(NC(=O)c2cccs2)c(OC)cc1NC(=O)CCC(=O)Nc1ccc(C)cc1	-20.4%	-10.4%
Cc1ccc(S(=O)(=O)Nc2c(C)n(C)n(-c3ccccc3)c2=O)cc1	-6.4%&-0.2%	4.5%
O=C(O)c1cc2c(ncc3c(=O)n(-c4ccccc4)[nH]c32)s1	7.7%	i
O=C(CN(C(=O)CNS(=O)(=O)c1ccccc1)c1ccc(Cl)cc1)NCC1CCCO1 (configuration not stated)	-8.3%	-0.9%
O=S1(=O)C[C@@H](N2CCOCC2)[C@H](N2CCOCC2)C1	12.2%	1.2%
CC(C)CN(C(=O)COC(=O)c1ccccc1SCC(=O)N1CCCC1)C1CCS(=O)(=O)C1 (configuration not stated)	-9.6%	i
COc1cccc(C(=O)CN2C3=NCCCN3c3ccccc32)c1	-12.4%	-20.9%
COc1ccc(-c2csc(CCN3N=C(C)CC3=O)n2)cc1	-20.4%	-17.1%
Cc1ccc(NC(=O)c2ccc3c(=O)n4nc(Nc5ccccc5C)sc4nc3c2)cc1C	?	?
COc1ccc(CC(=O)OCn2nnc3ccccc3c2=O)cc1	4.6%	.
CCOC(=O)CN(C(=O)Cn1nnc(-c2ccc(OC)cc2)n1)C(C(=O)NC1CCCC1)c1ccc(F)cc1 (configuration not stated)	-2.9%	i
N#C/C(=C\c1cn(-c2ccccc2)nc1-c1cc2ccccc2o1)c1nc2ccccc2[nH]1	-4.4%	-14.7%
CC(=O)N1Cc2ccccc2CC1C(=O)N1CCN(c2ccccc2)CC1 (configuration not stated)	-21.0%	-1.0%
CN1CCN(CC#CCn2c3ccccc3c3ccccc32)CC1	-30.0%	?
COC(=O)c1ccccc1NC(=O)NCCc1ccccc1OC	-1.6%	-13.7%
C=CCn1c(SCC(=O)NC2CCCCC2)nnc1C1CCCCC1	-14.4%	.
Cc1cc(C)c2[nH]c(=O)c(CN(Cc3cccs3)C(=S)NCc3ccco3)cc2c1	-10.6%	-20.0%

Given with two lines to a compound: 3 of the compounds above.
The line under a structure holds: Vaccinia Venus	VACV mCherry inh
> O=C(CN(C(=O)CNS(=O)(=O)c1ccccc1)c1ccc(Cl)cc1)NCC1CCCO1 (configuration not stated)
→ -8.3%	-0.9%
> Cc1nnc(SCC(=O)N2CCOCC2)[nH]c1=O
→ 11.0%	-9.6%
> O=C1OC(/C(=C\Nc2ccc(F)cc2F)[N+](=O)[O-])c2ccccc21 (configuration not stated)
→ -6.8%	-6.8%

Carrying on:
SMILES	Vaccinia Venus	VACV mCherry inh
O=C(NCc1ccco1)[C@@H]1CCCN1C(=O)c1cccs1	2.2%	-1.5%
NC(=S)N/N=C/c1ccc2c(c1)OCCO2	10µM*	11.2µM*
COc1ccc(OC)c(-c2cc(C3CCN(c4ncccc4[N+](=O)[O-])CC3)[nH]n2)c1	?	?
O=C(NNc1ccccc1F)C1CCC1	-5.6%	-2.0%
CCC1(c2ccc(Cl)cc2)NC(=O)N(CC(=O)NC2CCCCCC2)C1=O (configuration not stated)	-23.3%	i
Fc1ccc(C2=CC(c3ccco3)n3nnnc3N2)cc1 (configuration not stated)	18.2%	3.9%
COc1ccc(C(NC(=O)c2ccco2)c2ccc(OC)c(OC)c2)cc1 (configuration not stated)	1.9%	.
O=C(O)c1cc(S(=O)(=O)N2CCCCCC2)c(Cl)cc1Cl	-11.5%	-9.8%
COC(=O)C[C@@H]1C[C@H]2c3cc(NS(C)(=O)=O)ccc3O[C@H]2[C@H](CO)O1	-11.4%	-6.5%
CSc1ccccc1NC(=O)CN(C)C(=O)C1CCN(C(=O)Nc2ccccc2)CC1	-11.8%	i
NNc1nc2ccc(F)cc2s1	-26.5%	-14.6%
COc1ccc(C(=O)N2CCOC2CNC(=O)C(=O)NCc2ccc3c(c2)OCO3)cc1 (configuration not stated)	12.7%	-9.4%
C#C[C@]1(O)CC[C@H]2[C@@H]3CCc4cc(O)ccc4[C@H]3CC[C@@]21C	?	?
Cc1cccc(C(=O)NC2CCN(C(=S)NCc3ccco3)CC2)c1	-11.4%	-2.7%
Cc1ccc(NC(=O)CN(C)C(=O)c2cccc(S(=O)(=O)N3CCc4ccccc4C3)c2)cc1	-19.3%	i
Cc1nn(CC#N)c(=O)n1-c1ccccc1	-11.4%	-13.8%
CCCC(=Nc1ccccc1)C1=C(O)C(C(=O)OC)C(C)(C)CC1=O (configuration not stated)	-10.3%	-6.3%
CC1(C(=O)Nc2ccc3c(c2)OCCO3)CSCC(=O)N1CC(F)(F)F (configuration not stated)	-1.6%	i
O=C(O)CCC(=O)OCCN(Cc1ccc(Oc2ccc([N+](=O)[O-])cc2)cc1)C(=O)C(Cl)Cl	-18.3%	i
CCc1nc2nc(C)c(NS(=O)(=O)c3ccc(C4CCCCC4)cc3)c(=O)n2[nH]1	-15.4%	-2.9%
Cc1ccc(C(=O)Nc2c(-c3ccccc3)nc3ccccn23)cc1	-3.5%	-12.2%
COC(=O)CC1C(=O)NCCN1C(=O)c1ccc2oc(C(C)C)nc2c1 (configuration not stated)	-12.6%[7.34 µM]	i[7.34 µM]
Cc1cc(OCC(=O)NC2CC(C)(C)NC(C)(C)C2)c2c(C)cc(=O)oc2c1	-19.3%	-9.3%
CCOc1ccc(-c2nc(CSCC(=O)NCc3ccc(C)cc3)c(C)o2)cc1	-14.5%[7.34 µM]	-15.2%[7.34 µM]
C=CCNC(=O)c1c(Cl)cccc1Cl	-4.6%	-18.0%[1.46 µM]
O=C(C(=O)N1CCCCC1)c1cn(CC(=O)N2CCCCCC2)c2ccccc12	-17.5%	-11.1%
CC(C)CC(=O)Nc1c(C(=O)N2CCN(c3ccccc3F)CC2)oc2ccccc12	-6.6%[7.34 µM]	-13.6%[7.34 µM]
CCN(CCO)C(=O)CC1C(=O)NCCN1Cc1c(F)cccc1Cl (configuration not stated)	-10.2%	-3.8%
CCc1nc2c(OCCOc3ccccc3)cccn2c1N(C)C(=O)c1ccc(OC)cc1	-6.4%	3.3%
CCOC(=O)CC(Nc1nc(N2CCOCC2)nc(N2CCOCC2)n1)c1ccccc1Cl (configuration not stated)	-25.5%	.
CCc1ccc(OCC(=O)Nc2ccc(-c3nc4ncccc4o3)cc2)cc1	2.7%	-0.6%
CC1CCC(NC(=O)Cn2c3c(c(-c4ccccc4Cl)cc2=O)CCC3)CC1 (configuration not stated)	?	-14.3%
Cn1c(CC(=O)Nc2cccc(Cl)c2Cl)nnc1SCC(=O)NC1=NCCS1	1.9%	8.2%
CC1CN(CC(=O)Nc2nc3ccccc3s2)CC(C)O1 (configuration not stated)	-14.6%	-16.3%
CCCOc1ccc(/C=C/C(=O)NC2CCCCC2)cc1OC	-13.8%	-21.3%
CC(C)COc1ccc(C(=O)Nc2ccc([N+](=O)[O-])cc2)cc1	-9.4%	-4.0%
CCc1ccccc1NC(=O)c1ccc(Cn2cc([N+](=O)[O-])cn2)cc1	-1.9%	i
CCCCNc1nc2c(c(=O)n(C)c(=O)n2C)n1CCC	-8.3%	i
O=C(O)c1cn(Cc2ccccc2Cl)c2ccc(S(=O)(=O)N3CCOCC3)cc2c1=O	-7.3%	i
COC(=O)COc1ccc(Cl)cc1C1Nc2ccccc2C(=O)N1c1ccc(OC)cc1 (configuration not stated)	-13.5%	-1.2%
CC(=O)c1cccc2c1OC(C)C(=O)N2Cc1ccc(Cl)cc1 (configuration not stated)	4.5%	-6.4%
CCNC(=O)C1CCCN(Cc2ccc(C)c3ccccc23)CC1 (configuration not stated)	-1.4%	8.2%
Cc1nnc(-c2cnn(C)c2N)n1Cc1ccc(Cl)cc1	-4.4%	i
COC(=O)CCC(=O)OC1(C)C(=O)C2=CN(CCCOC(C)C)C(c3ccc(OC)cc3)=CC2=C(Br)C1=O (configuration not stated)	6.7%	2.8%
O=[N+]([O-])c1cccc2c([As](=O)(O)O)cccc12	-14.3%	i
CCN1CCN(CCCNC(=O)Cn2c(-c3cccs3)cc3ccccc32)CC1	-0.6%	-4.8%
Cc1ccc(NC(=O)CN(C)C(=O)Cn2cc(C(F)(F)F)cc(Cl)c2=O)cc1	-10.7%	-3.3%
CCCCn1c(N)c(N(CC(C)C)C(=O)c2oc3ccc(OCC)cc3c2C)c(=O)[nH]c1=O	-23.6%	-15.7%

Screens from PubChem BioAssay.
